YopH inh = YopH tyrosine phosphatase inhibitors, primary screen, biochemical, fluorescence Ex485/Em525 | inhibition, %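 (about 10 µM by stock and volumes)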 | 140,000 tested, 0.16% active | AID 898, 2007;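 active = inhibition of 50% or more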;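 also: controls were vehicle for no effect and minimum signal wells for full effect; inactives centre near -20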
Arbovirus anti = antivirals against arbovirus infection, primary screen, cell-based, full library, 10K replicate subset; arbovirus infection cell-based antiviral screen; inhibition, % at 10 µM; 200,000 tested, 0.37% active; AID 1251, 2008;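 active = inhibition from about 30%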;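 also: bluetongue infection of BSR cells; cell survival read as ATP light after 72 h; 0% = infected wells without compound and 100% = uninfected wells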
Mtb growth = M. tuberculosis H37Rv growth inhibitors, H37Rv strain (AID 1626). M. tuberculosis H37Rv growth inhibition; higher % means a stronger effect. one-dose inhibition, % at 10 µM; IC50 in µM for titrated hits. 220,000 tested, 0.95% active;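 active = confirmed in a dose series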;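 also: bacteria incubated seven days before Alamar blue readout; 0% = bacteria only wells and 100% = bacteria with antibiotic wells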
Mtb bLac sens = beta-lactam sensitization of Mtb H37Rv, H37Rv. M. tuberculosis H37Rv growth with meropenem, percent inhibition; hits of this screen are not shown here. inhibition, % at 25 µM. 330,000 tested, 0.27% active;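 active = about 74% or more and at least 40 points above the plate without the antibiotic, then above 30% in a dose series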;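 also: growth measured after seven days incubation then overnight dye step; 0% = bacteria only wells and 100% = bacteria with antibiotic; twin plates without the antibiotic show which effects depend on it; some results filed as inactive read as strong as hits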
RecA intein inh = Mtb RecA intein splicing inhibitors, primary screen, biochemical, fluorescence, HTS; inhibition, %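 (about 9 µM by stock and volumes)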; 290,000 tested, 0.75% active; AID 2221, 2009; cell-free RecA intein splicing; in the data active = inhibition above about 30%;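 also: 0% = vehicle wells and 100% = reference inhibitor control wells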
Target sequence (P9WHJ3 whole entry, looked up): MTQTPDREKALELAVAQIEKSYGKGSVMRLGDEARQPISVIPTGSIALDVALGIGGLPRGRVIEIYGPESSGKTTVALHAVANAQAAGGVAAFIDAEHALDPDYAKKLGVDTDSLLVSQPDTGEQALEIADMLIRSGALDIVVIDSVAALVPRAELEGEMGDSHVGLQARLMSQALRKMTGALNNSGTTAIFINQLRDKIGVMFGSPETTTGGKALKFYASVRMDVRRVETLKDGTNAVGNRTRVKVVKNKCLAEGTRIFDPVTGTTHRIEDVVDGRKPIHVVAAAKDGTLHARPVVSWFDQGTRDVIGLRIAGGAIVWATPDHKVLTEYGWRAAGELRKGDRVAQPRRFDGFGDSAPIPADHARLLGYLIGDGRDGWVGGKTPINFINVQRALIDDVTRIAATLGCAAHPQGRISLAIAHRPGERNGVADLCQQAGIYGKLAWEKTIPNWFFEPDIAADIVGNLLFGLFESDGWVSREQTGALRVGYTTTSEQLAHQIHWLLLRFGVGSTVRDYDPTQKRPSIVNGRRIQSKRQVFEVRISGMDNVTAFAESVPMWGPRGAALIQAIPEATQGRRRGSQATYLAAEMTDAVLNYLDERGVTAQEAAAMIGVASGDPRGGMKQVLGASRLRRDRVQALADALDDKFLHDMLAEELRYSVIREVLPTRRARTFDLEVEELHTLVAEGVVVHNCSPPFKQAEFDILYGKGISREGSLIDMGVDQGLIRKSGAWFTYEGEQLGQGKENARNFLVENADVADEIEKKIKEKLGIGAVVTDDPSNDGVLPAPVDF
Arbovirus anti repeat = also measured in Arbovirus anti; calls as there; inhibition, %; measured here: 10K subset replicate screen; many hits read low in the repeat;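 first of two repeat runs on a subset; 0% = infected and 100% = uninfected wells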
Active calls of the source: *. Not all compounds are listed (hit frequency here may not be typical).

COc1cc(OC)c(C(=O)Nc2ccc3ccccc3c2)cc1OC was read as Mtb bLac sens 6 and RecA intein inh -0.7.
For CC(=O)c1cc(-c2ccccc2)n(CC(=O)Nc2cccc(C)c2C)c1C the results were YopH inh -29, Arbovirus anti -1, Mtb growth -1%, Mtb bLac sens 7 and RecA intein inh -1.2.
Screening CC(C)(C)c1ccc(C(=O)NCc2ccccc2)cc1 returned Arbovirus anti 0, Mtb growth -2%, Mtb bLac sens -4 and RecA intein inh 2.5.
Cc1cccc(C(=O)Nc2ccc(N3CCN(S(C)(=O)=O)CC3)cc2)c1 was read as Arbovirus anti 10, Mtb growth 2%, Mtb bLac sens 4 and RecA intein inh -0.6.
Screening O=C1CN(S(=O)(=O)c2ccccc2)CCN1S(=O)(=O)c1ccccc1 returned YopH inh -16, Arbovirus anti -10, Mtb growth -7%, Mtb bLac sens -4 and RecA intein inh -1.3.
For O=c1c2ccccc2n2c(-c3ccc(F)cc3)nnc2n1Cc1ccccc1 the results were YopH inh -26, Arbovirus anti 3, Mtb growth -3%, Mtb bLac sens 4 and RecA intein inh -0.1.
For CN(C)c1ccc(-n2cccc2/C=C2/SC(=Nc3ccc(F)cc3)NC2=O)cc1 the results were YopH inh -21, Arbovirus anti 4, Mtb growth 1%, Mtb bLac sens -1 and RecA intein inh -3.7.
O=C(CCc1ccccc1)NNC(=O)COc1ccc(Br)cc1 was read as Mtb bLac sens -2 and RecA intein inh -3.4.
For O=C(N/N=C\c1cc(Br)c(Br)o1)C1COc2ccccc2O1 (centres undefined) the results were Mtb growth -1%, Mtb bLac sens -3 and RecA intein inh 0.8.
For CCCCOc1ccccc1C1NC(=O)NC(C)=C1C(=O)OCCOCC (centres undefined) the results were YopH inh -24, Arbovirus anti -2, Mtb growth 4%, Mtb bLac sens 1 and RecA intein inh 1.2.
CN(C)c1ccc(S(=O)(=O)NCC(=O)N2CCN(c3ccccc3)CC2)cc1[N+](=O)[O-] was read as Mtb bLac sens -2 and RecA intein inh -2.4.
`OC(COc1ccc2c(c1)CCC2)CN1CCN(c2ccccc2F)CC1` (centres undefined) gave YopH inh -209, Arbovirus anti 26, Mtb growth 7%, Mtb bLac sens 7 and RecA intein inh 2.8.

A stretch taken from the entries so far, as a working copy:
COc1cc(OC)c(C(=O)Nc2ccc3ccccc3c2)cc1OC was read as Mtb bLac sens 6 and RecA intein inh -0.7.
For CC(=O)c1cc(-c2ccccc2)n(CC(=O)Nc2cccc(C)c2C)c1C the results were YopH inh -29, Arbovirus anti -1, Mtb growth -1%, Mtb bLac sens 7 and RecA intein inh -1.2.

The list goes on.
For COc1ccc2cc(-c3cc(C(=O)OCC(=O)Nc4c(C)n(C)n(-c5ccccc5)c4=O)c4ccccc4n3)ccc2c1 the results were YopH inh -27, Arbovirus anti -4, Mtb growth 0% and RecA intein inh -9.6.
`CCOC(=O)c1c(C)[nH]c(C)c1S(=O)(=O)NCCN1CCN(c2cc(Cl)ccc2C)CC1` gave Mtb bLac sens 10 and RecA intein inh -1.6.
C[C@@H]1CCC[C@H](C)N1Cc1nc(Cc2ccccc2Cl)no1 was read as Arbovirus anti -4, Mtb growth 0%, Mtb bLac sens 4 and RecA intein inh 0.0.
Screening COc1cc(CNCc2ccc(OC)c3ccccc23)cc(OC)c1OC returned Mtb bLac sens 3 and RecA intein inh -2.0.
Screening O=C(O)c1nc(Cl)c(Cl)c(N/N=C/c2ccccc2C(F)(F)F)c1Cl returned Mtb bLac sens 7 and RecA intein inh 5.2.
For O=C(COC(=O)c1cc(-c2cccs2)nn1-c1ccccc1)Nc1cccc([N+](=O)[O-])c1 the results were YopH inh -24, Arbovirus anti -8, Mtb growth -2%, Mtb bLac sens -1 and RecA intein inh 6.0.
Screening O=C(N[C@@H](Cc1ccccc1)C(=O)O)c1cccnc1 returned YopH inh -36, Arbovirus anti 3, Mtb growth 9%, Mtb bLac sens -13, RecA intein inh 2.2 and Arbovirus anti repeat 1.
CC1(C)Oc2ccc3ccc(=O)oc3c2/C(=C/NCCO)C1=O was read as YopH inh -37, Arbovirus anti 5, Mtb growth 8%, Mtb bLac sens 3 and RecA intein inh -1.6.
For COc1ccc(Nc2nc(OC)nc(N3CCN(c4ccc(OC)cc4)CC3)n2)cc1 the results were YopH inh -1, Arbovirus anti 4, Mtb growth -15% and RecA intein inh 2.7.
Screening Cc1[nH]c(=O)[nH]c(=O)c1S(=O)(=O)N1CCCCC1 returned Mtb bLac sens -10 and RecA intein inh 17.
O=S(=O)(N[C@@H]1C[C@H]2CC[C@@H]1C2)c1cccs1 was read as YopH inh -11, Arbovirus anti 7, Mtb growth 2%, Mtb bLac sens 32 and RecA intein inh 1.0.
`C/C(=N\N=c1/scc(C)n1Cc1ccco1)c1cccc([N+](=O)[O-])c1` gave YopH inh -28, Arbovirus anti 9, Mtb growth 5%, Mtb bLac sens 6 and RecA intein inh -2.8.
O=C(Nc1ccccc1)Nc1ccc2ccccc2c1 was read as Mtb growth -5%, Mtb bLac sens -4 and RecA intein inh -1.5.
Screening Cc1ccc(-c2nc3ncccc3o2)cc1NC(=O)C(C)(C)C returned Mtb bLac sens 8 and RecA intein inh 0.1.
For O=C(O)CC(NC(=O)C12CC3CC(CC(C3)C1)C2)c1cc([N+](=O)[O-])ccc1Cl (centres undefined) the results were Arbovirus anti -2, Mtb growth -4%, Mtb bLac sens 1 and RecA intein inh 1.6.
`COCc1c(C(=O)N/N=C/c2cccc3ccccc23)nnn1-c1nonc1N` gave Arbovirus anti -8, Mtb growth 1%, Mtb bLac sens -1 and RecA intein inh -0.3.
For CSc1ccc(NC(=O)N2CC=C(n3c(=O)[nH]c4ccccc43)CC2)cc1 the results were YopH inh -36, Arbovirus anti -9, Mtb growth 97%, Mtb bLac sens 22 and RecA intein inh 3.9.
For Cc1cc([N+](=O)[O-])nn1CC(=O)N1c2ccccc2CC1C (centres undefined) the results were YopH inh -27, Arbovirus anti 12, Mtb growth 4%, Mtb bLac sens -3 and RecA intein inh 1.2.
`Cc1ccc(N2C(=O)/C(=C\c3ccc(C(C)C)cc3)N=C2SC2CCOC2=O)cc1` (centres undefined) gave YopH inh -6, Arbovirus anti 39*, Mtb growth 1%, Mtb bLac sens 2 and RecA intein inh 1.2.
For CCOC(=O)c1c(CSc2ccccc2)n(C)c2cc(Br)c(OC)c(O)c12 the results were Mtb bLac sens 99 and RecA intein inh 1.0.
`CCOc1ccc(CN(C)C(=O)c2cc3ccccc3o2)cc1OC` gave Mtb bLac sens -5 and RecA intein inh 4.8.
For O=c1c2ccccc2nc(/C=C/c2ccccc2)n1CCc1ccccc1 the results were YopH inh -19, Arbovirus anti -2, Mtb growth 13%, Mtb bLac sens 0 and RecA intein inh -1.7.
O=C(CCn1nnnc1CN1CCOCC1)N1CCC(c2ccccc2F)C1 (centres undefined) was read as Mtb bLac sens -8 and RecA intein inh 0.0.
COc1c(C(=O)Nc2ccc(Cc3ccncc3)cc2)ccc2ccccc12 was read as YopH inh 1, Arbovirus anti -27, Mtb growth 2%, Mtb bLac sens 83 and RecA intein inh 17.

Fetched one by one from above (three):
`CCOC(=O)c1c(C)[nH]c(C)c1S(=O)(=O)NCCN1CCN(c2cc(Cl)ccc2C)CC1` gave Mtb bLac sens 10 and RecA intein inh -1.6.
Screening Cc1[nH]c(=O)[nH]c(=O)c1S(=O)(=O)N1CCCCC1 returned Mtb bLac sens -10 and RecA intein inh 17.
Screening COc1cc(CNCc2ccc(OC)c3ccccc23)cc(OC)c1OC returned Mtb bLac sens 3 and RecA intein inh -2.0.

(continued)
For CCC1(CC)C(=O)C(C)(C)C(=O)OC1c1ccccn1 (centres undefined) the results were YopH inh -8, Arbovirus anti 11, Mtb growth 1%, Mtb bLac sens -7 and RecA intein inh 0.5.
For Cc1[nH]c2ccccc2c1CCN(Cc1cccnc1)C(=S)Nc1ccc(F)cc1 the results were Arbovirus anti 10, Mtb growth 4%, Mtb bLac sens -4 and RecA intein inh 6.4.
For O=C(Nc1cccc([N+](=O)[O-])c1)C1C2CC/C=C\CCC21 (centres undefined) the results were Mtb growth 3%, Mtb bLac sens 96 and RecA intein inh 0.6.
Screening CCOc1ccc(Br)cc1-c1noc(-c2cccs2)n1 returned YopH inh 11, Arbovirus anti -2, Mtb growth 3%, Mtb bLac sens 15 and RecA intein inh 3.2.
Screening CCOC(=O)c1cc(-c2ccc(C)o2)nn1CCC#N returned YopH inh -35, Arbovirus anti 3, Mtb growth -3%, Mtb bLac sens 2, RecA intein inh 0.8 and Arbovirus anti repeat 0.
O=C(c1ccco1)N1CCN(C2CC(=O)N(c3ccc(F)c(Cl)c3)C2=O)CC1 (centres undefined) was read as Mtb bLac sens 2 and RecA intein inh -1.9.
For O=C(CSc1ncnc2c1nnn2-c1ccc(F)cc1)NCc1ccco1 the results were YopH inh -9, Arbovirus anti 5, Mtb growth 0%, Mtb bLac sens 60 and RecA intein inh 3.7.
For CN(C)CCCCCNCCCNC(=O)/C=N\O the results were YopH inh -16, Arbovirus anti 14, Mtb growth -2%, Mtb bLac sens -5, RecA intein inh -1.0 and Arbovirus anti repeat 1.
Screening C=C1CCN([C@@H](CC(C)C)C(=O)Nc2ccc(OC)cc2)S(=O)(=O)c2ccccc21 returned Mtb growth 9%, Mtb bLac sens 73 and RecA intein inh 1.0.
For CCOc1ccc(/C=C/C(=O)N(CC)CC(=O)Nc2ccc3c(c2)OCCO3)cc1OCC the results were Mtb bLac sens -14 and RecA intein inh -1.6.
For Cc1c(C(=S)Nc2ccccc2)cnn1-c1ccc([N+](=O)[O-])cc1 the results were YopH inh -11, Arbovirus anti -1, Mtb growth 4%, Mtb bLac sens 18 and RecA intein inh 6.8.
COc1ccc(NC(=O)CCSc2ccc3ccccc3n2)cc1 was read as YopH inh -25, Arbovirus anti 2, Mtb growth 71%, Mtb bLac sens 51 and RecA intein inh 0.4.

The final 2 records of the part before come first, to join the parts.
For Cc1c(C(=S)Nc2ccccc2)cnn1-c1ccc([N+](=O)[O-])cc1 the results were YopH inh -11, Arbovirus anti -1, Mtb growth 4%, Mtb bLac sens 18 and RecA intein inh 6.8.
COc1ccc(NC(=O)CCSc2ccc3ccccc3n2)cc1 was read as YopH inh -25, Arbovirus anti 2, Mtb growth 71%, Mtb bLac sens 51 and RecA intein inh 0.4.
`COc1ccc([N+](=O)[O-])cc1NC(=O)c1cn(-c2ccc(Cl)cc2)c(=O)c2ccccc12` gave YopH inh -36, Arbovirus anti -12, Mtb growth -3%, Mtb bLac sens -1 and RecA intein inh 2.3.
For COCCNC(=O)/C(C#N)=C/c1nc(N(C)C)n(-c2ccc(F)cc2)c1Cl the results were Arbovirus anti 7, Mtb growth 5%, Mtb bLac sens 11 and RecA intein inh 0.2.
`CC(C)/C(=N/Nc1ccccc1[N+](=O)[O-])c1ccccc1` gave Arbovirus anti 4, Mtb growth -3%, Mtb bLac sens -2 and RecA intein inh 14.
CCOC(=O)c1c(NS(=O)(=O)c2ccccc2)n(CCCOC)c2nc3ccccc3nc12 was read as YopH inh 16, Arbovirus anti 1, Mtb growth 3%, Mtb bLac sens -1 and RecA intein inh inactive.
Screening CC(=O)Nc1ccc(NC(=O)CSc2ccccn2)cc1 returned YopH inh -15, Arbovirus anti -6, Mtb growth 7%, Mtb bLac sens 1 and RecA intein inh -7.5.
Screening NC(=O)c1cc(S(=O)(=O)Nc2ccc(OC(F)(F)F)cc2)cs1 returned Mtb bLac sens 3 and RecA intein inh -1.5.
For CCOc1cc2c(cc1OCC)C(C(=O)O)C(c1ccc(OC)c(O)c1)N(C)C2=O (centres undefined) the results were YopH inh -29, Arbovirus anti 8, Mtb growth 1%, Mtb bLac sens -4 and RecA intein inh -4.7.
CCC(C(=O)Nc1nc(C)cs1)c1ccccc1 (centres undefined) was read as YopH inh -20, Arbovirus anti -4, Mtb growth -11%, Mtb bLac sens -1 and RecA intein inh 3.4.
`CCOCCCNC(=O)/C(C#N)=C/c1ccc(-c2ccc(S(=O)(=O)N3CCOCC3)cc2)o1` gave YopH inh -1, Arbovirus anti -18, Mtb growth 7%, Mtb bLac sens 9 and RecA intein inh -4.5.
O=C(CN1CCN(c2ccccn2)CC1)N1c2ccccc2CCc2ccccc21 was read as YopH inh 4, Arbovirus anti 2, Mtb growth -6%, Mtb bLac sens 2 and RecA intein inh 0.7.
For Cc1cc2cc(CN(CC3CCCO3)C(=O)c3cnccn3)c(=O)[nH]c2cc1C (centres undefined) the results were YopH inh 18, Arbovirus anti 5, Mtb growth -1%, Mtb bLac sens -4 and RecA intein inh -0.8.
